D2 ag: activates the human D2 dopamine receptor; hit rate 0.084% among 360,000; AID 624465; activation, % (no concentration beside the values); DiscoveRx PathHunter D2 beta-arrestin, luminescence, 90 min; 100% = 57 uM dopamine signal; P14416; in the data active = activation above about 40%; inconclusive = about 15% to 40%; inactive = below about 15%; further: compound concentration not given in the record; the text of the record calls up to 30% inactive
Target sequence (P14416 whole entry, looked up): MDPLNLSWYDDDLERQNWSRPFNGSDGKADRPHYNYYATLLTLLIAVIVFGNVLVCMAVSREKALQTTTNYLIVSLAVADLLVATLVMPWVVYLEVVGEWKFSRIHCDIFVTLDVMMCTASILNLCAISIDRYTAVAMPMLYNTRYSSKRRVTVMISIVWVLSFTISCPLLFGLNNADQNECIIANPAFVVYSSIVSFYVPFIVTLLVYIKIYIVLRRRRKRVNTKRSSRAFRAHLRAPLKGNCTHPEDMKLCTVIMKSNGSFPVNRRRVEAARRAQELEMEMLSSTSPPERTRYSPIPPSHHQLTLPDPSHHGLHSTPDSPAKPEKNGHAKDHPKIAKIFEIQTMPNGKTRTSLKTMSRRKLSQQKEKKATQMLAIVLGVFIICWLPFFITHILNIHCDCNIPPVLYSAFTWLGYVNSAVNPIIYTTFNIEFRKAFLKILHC
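Agonist mode: compounds alone added to overnight-plated D2 PathHunter cells for 90 min at 37 C, with 57 uM final dopamine (EC100) defining full response. Beta-arrestin recruitment detected by chemiluminescent reagent, read after 1 h at ambient temperature.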
gsp ag: gsp mutant agonism; gsp mutant cells, cAMP HTRF, 30 min; control for the full effect not named in the record; Potency, µM (top dose mostly 76.9 µM), without a hit: top-dose activation (cAMP increase), hits mostly activators; hit rate 0.13% among 340,000; active = well fitted activation curve with a large enough effect; inconclusive = small, poorly fitted or top-dose-only effect, or another doubt; inactive = no such curve, though single readings can be large or run the other way; cell line not stated here;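 further: phosphodiesterase inhibitor Ro 20-1724 added with compounds to block cAMP breakdown; potency means the concentration at half of the fitted maximal effect; nearly all actives have a fitted effect of over 60% in size; about a fifth of the inactives were tested at one dose only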
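Cells stably selected in G418 were plated at 2000/well, grown 16-24 hr, then given compounds in DMSO with the PDE inhibitor […] (300 uM solution added) for 30 min at 37C; cAMP was read by HTRF.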
Sfp PPTase inh: blocks B. subtilis Sfp PPTase activity; Q9F4F7; Biochemical Sfp PPTase activity, qHTS; Potency, µM, inactives show max response, negative = inhibition, most hits filed as inhibitors; hit rate 3.5% among 310,000; AID 1490; active means well fitted inhibition curve with a large enough effect; inconclusive means small, poorly fitted or top-dose-only effect, or another doubt; inactive means no such curve, though single readings can be large or run the other way;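 further: the enzyme is Sfp with the accession as filed and its product quenches rhodamine fluorescence; potency means the concentration at half of the fitted maximal effect; 0% = enzyme reaction without inhibitor and -100% = no enzyme wells; top concentration of the series not given in the record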
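Buffer: 50 mM Hepes-Na pH 7.6, 10 mM MgCl2, 0.01% Nonidet P-40, 0.01% BSA. Enzyme 15 nM, pre-exposed to compound 15 min; substrates then added and fluorescence change tracked over 30 min.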
ClpP mod: qHTS Assay for Activators of ClpP. purified B. subtilis ClpP, FRET peptide cleavage, 20 min. hit rate 1.9% among 340,000. ATP-dependent Clp protease proteolytic subunit (Bacillus subtilis (strain 168)), P80244. Potency, µM (doses to about 57.5 µM), for the others: top-dose activity change, negative = active; active = well fitted falling curve with a large enough effect; inconclusive = small, poorly fitted or top-dose-only effect; inactive = no such curve, though single readings can be large or run the other way; further: potency means the concentration at half of the fitted maximal effect; the source files actives as falling curves though it sought activators and does not explain the sign; nearly all actives have a fitted effect of over 65% in size; many hits overshoot -100%
Target sequence (P80244 whole entry, looked up): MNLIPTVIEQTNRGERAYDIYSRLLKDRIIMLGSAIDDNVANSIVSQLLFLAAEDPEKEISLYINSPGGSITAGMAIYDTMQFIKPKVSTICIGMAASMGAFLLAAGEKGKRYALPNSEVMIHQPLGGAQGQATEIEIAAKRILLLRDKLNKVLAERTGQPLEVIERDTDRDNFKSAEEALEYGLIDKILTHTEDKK
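ClpP 10 microg/mL final, pH 8 Tris/KCl buffer with BSA, glycerol, Tween-20; compound pinned in; FRET-FV substrate; RT 20 min; Ex320/Em430; ΔFRET vs ADEP 5.8 microM, DMSO, no enzyme.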
gsp antagonist: antagonists of gsp mutant (McCune-Albright syndrome). gsp-mutant cells, cAMP HTRF, 30 min; control for the full effect not named in the record. AID 624288. hit rate 0.4% among 340,000. Potency, µM (doses to about 76.9 µM), for inactives: at the highest dose activity change, negative = inhibition, usual class: inhibitors; active = falling curve of any shape with a large fitted effect; inconclusive = falling curve, mostly with a smaller effect; inactive = flat or rising curve; cell line not stated here;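 further: intracellular cAMP measured with PDE inhibitor Ro 20-1724 present during compound exposure; potency means the concentration at half of the fitted maximal effect; on the % scale 0 is the no-effect control and ±100 the full control effect; nearly all actives have a fitted effect of over 65% in size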
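G418-selected cells were plated in DMEM/10% FBS for 16-24 h at 37C, then treated with compounds plus the PDE inhibitor […] (300 uM solution added) for 30 min at 37C. Intracellular cAMP was measured by HTRF after 30 min lysis at room temperature.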
Menin-MLL FL inh: displaces fluorescein MLL peptide from human menin. 290,000 tested, under 10 active. AID 1766. FP activity change, % at 61.4 µM. Fluorescence polarization, fluorescein-MLL peptide displacement from menin; inconclusive = falling polarisation curve, or a change in total fluorescence; inactive = total fluorescence flat and polarisation flat or rising; no compound was filed as active; the % refers to the polarisation; negative = inhibition;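 further: % of control where 0% means no effect; inhibitors lower the polarisation; unlabelled MLL peptide was the positive control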
PINK1 expr mod: modulators of PINK1 expression | PINK1 immunofluorescence, high-content cytometry, 24 h | Potency, µM (titrated, usually from 76.6 µM), inactives show at the top dose activation (PINK1 increase), hits mostly activators | hit rate 0.2% among 410,000; active = well fitted activation curve with a large enough effect; inconclusive = small, poorly fitted or top-dose-only effect; inactive = flat fitted curve, though single readings scatter; cell line not stated here;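 further: potency means the concentration at half of the fitted maximal effect; % of control where 0% means no effect; nearly all actives have a fitted effect of over 65% in size; a mitochondrial uncoupler was the plate control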
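PINK1 protein, normally rapidly degraded, was detected by immunofluorescence after 24 hour compound treatment of a stable cell line. Titration data (5 concentrations) came from laser-scanning cytometry, with CCCP-treated wells as controls.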
Numbers without * were called inactive; ? = inconclusive; / = no result given; & = joins results of further samples; [ ] = dose if it differs, or a comment.

compound,D2 ag,gsp ag,Sfp PPTase inh,ClpP mod,gsp antagonist,Menin-MLL FL inh,PINK1 expr mod
Cc1cccc(-n2nc3c(c2NC(=O)C2CC2)CS(=O)(=O)C3)c1C,-3.2,?,10.7%,-1.4%,?,-3.2,-0.4%
O=c1oc2ccccc2c2[nH]ccc12,2.2,25.6%,5.9%,/,-0.2%,6.5,-0.4%
O=C(/C=C/c1ccc(O)c(O)c1)OC1C(O)CC(OC(=O)/C=C/c2ccc(O)c(O)c2)(C(=O)O)CC1O (configuration not stated),-1.6,-1.7%[15.4 µM],44.7µM*,-4.3%,6.0%,4.1,-0.5%
CCCC(=O)Nc1cc(C)cn(Cc2c(F)cccc2Cl)c1=O,-3.5,-3.7%[15.4 µM],-7.7%,-0.9%,0.9%,1.4,2.4%
C=CCSc1n[nH]c(=O)n1-c1cccc(C(F)(F)F)c1,-4.0,-0.1%[15.4 µM],5.8%,0.0%,-5.3%,5.2,-1.1%
Cc1cc(/C=C2/C(=O)N(C)C(=S)N2C)ccc1N1CCCC1,0.6,4.7%,-8.1%,0.6%,-5.6%,?,?
COc1ccccc1C1CC(c2cccc(NS(C)(=O)=O)c2)=NN1S(=O)(=O)c1ccccc1 (configuration not stated),-1.1,-10.6%,9.0%,3.1%,?,?,9.1%
Nc1nc(NCc2ccc(Cl)cc2)nc(NCCO)c1[N+](=O)[O-],6.4,3.5%[15.4 µM],12.5%,/,-2.4%,4.3,2.4%
COC(=O)c1ccc(CSc2nc(N)cc(N)n2)cc1,1.1,22.4%,8.2%,-0.2%,-6.9%,2.2,-2.5%[38.3 µM]
CCn1c(N)c(Br)c(=O)[nH]c1=O,-1.2,28.0%,9.3%,-1.8%,5.8%,3.8,-0.5%
O=C(C1CC1)N1N=C(c2ccccc2)CC1(O)C(F)(F)F (configuration not stated),-2.5,17.2%,-2.6%,-1.3%,-5.3%,-0.1,1.8%
CCS(=O)(=O)NCCCc1ccccc1,-2.5,-21.3%,?,0.3%,11.6%,5.9,-0.4%
CN1C(=O)N(CC(=O)N2CCN(S(=O)(=O)/C=C/c3ccccc3)CC2)C(=O)C12CCCCC2,1.8,-61.7%[inhibitor],/,0.5%,-1.8%,/,1.0%
COCCN(CCOC)C(=O)CN1C(=O)NC(Cc2c[nH]c3ccccc23)C1=O (configuration not stated),-3.2,-0.2%[15.4 µM],-10.1%,/,-4.0%,-0.7,-0.3%
Cc1ccc(S(=O)(=O)Nn2c(O)c(C=C3N=c4ccccc4=N3)sc2=S)cc1,-5.1,-53.5%[inhibitor],-1.3%,-2.8%,-26.6%,2.1,0.3%
Cc1cc(C)c(S(=O)(=O)N2CCCC(C(=O)NCCC3=CCCCC3)C2)c(C)c1 (configuration not stated),1.5,-6.8%,4.2%,-3.7%,-7.3%,-1.8,-5.7%[38.3 µM]
O=c1[nH]c(=O)c2nc(Br)n(C3OC(CO)C(O)C3O)c2[nH]1 (configuration not stated),/,/,10.7%,/,/,-0.6,0.5%
CNc1nc(-c2ccc3c(c2)CCN3C(=O)c2ccc(F)cc2)cs1,1.5,14.4%,-5.3%,-1.0%,-3.3%,8.4,7.0%
O=C(CC1C(=O)NCCN1C1CCCC1)NCc1cccc(OC(F)(F)F)c1 (configuration not stated),-3.6,0.2%[15.4 µM],8.7%,1.0%,2.1%,-2.6,1.1%
CCOC(=O)Cc1nnc(NC(=O)CSc2nncn2C)s1,-2.0,0.3%,9.3%,0.3%,5.4%,-1.9,/
Cc1cc(NS(=O)(=O)c2ccc(NC(=O)CSc3nnc(-c4ccco4)n3Cc3ccco3)cc2)nc(C)n1,-3.1,-17.9%,10.6%,-2.0%,4.2%,3.7,4.4%
O=[N+]([O-])c1cccc(S(=O)(=O)c2cccc([N+](=O)[O-])c2)c1,10.0,7.9%[15.4 µM],8.2%,/,7.1%,-4.5,0.1%
O=C(CSc1ccc(Cl)cc1)NNC(=O)c1ccncc1,-0.3,-44.5%[inhibitor],/,-25.8%,5.1%,/,7.1%
CC(=O)Nc1ccccc1OC(C)C(=O)NC(C)c1ccc(F)cc1 (configuration not stated),-6.0,1.2%[15.4 µM],9.7%,-1.2%,8.4%,7.6,0.8%
Cc1ccc(C)n1NC(=O)c1ccccc1O,-0.6,-21.5%,8.1%,-10.8%,3.9%,3.5,7.2%
COc1ccc(CN2CCN(C(=O)c3ccco3)CC2)cc1OC,83.8*,15.6%[15.4 µM],-25.3%,/,-4.7%,-3.7,-1.5%
Cc1ccc(-n2c(-c3ccncc3)nnc2-c2cccs2)cc1,-2.0,-22.1%,/,-9.5%,-17.3%,/,-0.5%
C=C(C)CSc1nc(C)c(Cc2ccccc2)c(=O)[nH]1,-0.8,-4.2%,4.3%,2.0%,5.9%,2.1,-0.1%
O=C(NCCCSc1ccccc1)c1cc(Cl)ccc1O,-5.4,-18.5%,-20.6%,3.9%,?,/,17.8µM*
CCOC(=O)c1[nH]c2ccc(OCC)cc2c1NC(=O)CN1CCCC(C)C1 (configuration not stated),-1.7,-15.5%,15.8%,14.1µM*,-2.1%,-2.4,0.3%
O=C1[C@H]2[C@@H](c3ccccc3)N[C@]3(CCCN(Cc4ccc(Cl)cc4)C3=O)[C@H]2C(=O)N1Cc1ccccc1,0.4,?,/,1.7%,/,/,0.3%
COc1ccc(-c2nnn(CC(=O)N(Cc3ccccc3Cl)C(C(=O)NCC3CCCO3)c3ccco3)n2)cc1OC (configuration not stated),-0.8,-10.7%,-4.9%,-4.4%,-12.7%,2.1,?
COc1ccc(Cc2nc(-c3ccc(NC(=O)c4cccnc4)cc3)no2)cc1,-2.9,-0.9%,7.7%,2.2%,-0.1%,-0.4,18.9%
O=C(Nc1ccc2oc(=O)ccc2c1)c1cccnc1Cl,-4.1,14.6%,9.1%,?,10.2%,1.7,1.7%
CC(C)(C)c1csc(NC(=O)c2cccs2)n1,-1.6,18.6%,-16.1%,-1.2%,-12.0%,3.9,4.2%
CCOC(=O)/C=C1\CC(=O)Nc2nonc2N1,-1.7,-21.0%,8.7%,-2.7%,10.6%,1.7,0.0%
O=C1C2CC=CCC2C(=O)N1c1n[nH]c(Cc2ccccc2)n1 (configuration not stated),-0.4,-13.2%,8.6%,0.2%,14.7%,1.9,3.2%[38.3 µM]
CC1(C(=O)Nc2ccc3ccccc3c2)CCC(=O)N1CCCn1ccnc1 (configuration not stated),-2.7,/,/,-1.6%,/,/,0.7%
Cn1cccc1C(C#N)c1ncc(C(F)(F)F)cc1Cl (configuration not stated),-7.8,-1.8%,4.7%,/,-5.2%,-4.5,5.7%
O=C(Nc1ccc(N2CCOCC2)nc1N1CCOCC1)c1cccc(C(F)(F)F)c1,-3.1,1.7%[15.4 µM],-9.1%,-0.5%,1.8%,-3.1,0.5%
Cn1nccc1C(=O)OCC(=O)Nc1nc(-c2ccccc2)cs1,1.2,-44.3%,?,-1.4%,?,0.6,1.4%[38.3 µM]
COc1cc(NC(=O)c2ccccc2F)ccc1NC(=O)c1ccccc1Cl,8.7,0.6%,12.6%,/,-7.2%,-0.8,3.4%
Cc1ccccc1-c1ccc(/C=C2/SC(N3CCOCC3)=NC2=O)o1,48.7*,10.5%[15.4 µM],-15.8%,-2.3%,-20.5%,12.8,10.0%
COc1cc2sc3ccc(C#Cc4ccccn4)cc3c(=O)c2cc1OC,1.0,/,/,?,?,/,3.2%
CCCn1c(=O)c(C(=O)Nc2c(C)n(C)n(-c3ccccc3)c2=O)c(O)c2ccccc21,-1.7,-1.1%,5.1%,-1.3%,0.1%,7.0,-0.2%
O=C(c1ccncc1)N1CCN(C2CCCCC2)CC1,-2.0,0.8%[15.4 µM],-3.8%,/,5.4%,-3.0,0.5%
Cn1c(NC(=O)C[n+]2cc(-c3ccccc3)n3c2CCC3)cc(=O)n(C)c1=O,-2.3,?,12.5%,-0.3%,13.8%,-3.4,-2.4%
COc1cc(CNCc2ccncc2)cc(OC)c1OC,3.2,-2.2%,-16.5%,1.9%,-0.7%,-2.3,0.6%
c1ccc(-c2cc(-c3ccccc3)on2)cc1,-0.4,3.4%,14.0%,-0.4%,9.1%,0.6,4.8%
CN(C)C(=O)CSc1nc2ccccc2n1Cc1ccccc1,-2.0,-0.6%[15.4 µM],-15.5%,-4.5%,2.1%,-0.2,3.3%
COC(=O)c1ccc(Cn2nnc3c(=O)[nH]c(C4CCCN(S(=O)(=O)c5cccc(Cl)c5)C4)nc32)cc1 (configuration not stated),-14.2,?,?,0.8%&-0.1%,-0.9%,0.1,0.1%&3.3%
CC(C)CC(=O)N1CCN(S(=O)(=O)c2ccc(Cl)cc2)CC1,-1.5,0.5%[15.4 µM],16.5%,/,5.9%,-7.1,0.0%
CCOC(=O)C(NC(=O)c1ccccc1)=C(C)C,1.2,-10.7%,-3.0%,-1.0%,5.4%,-0.3,4.4%[38.3 µM]
CCN(CC)C(=O)CN1C(=O)NC2(CCc3ccccc3C2)C1=O (configuration not stated),-1.8,-3.7%,15.0%,0.1%,-3.0%,-0.4,-1.5%
CCCn1c2ccc(C)cc2c2nnc(SCCN3CCOCC3)nc21,5.9,-1.2%[15.4 µM],-12.7%,1.1%,7.8%,-1.8,0.5%
COc1cccc(CC(=O)OCC(=O)NC2CCCC2)c1,-0.3,-39.5%[inhibitor],/,?,6.8%,/,-0.6%
CN(CC(=O)Nc1ccc(F)c(F)c1F)C(=O)c1ccc(-n2cncn2)c([N+](=O)[O-])c1,-1.1,21.3%,/,0.5%,9.7%,/,2.1%
Cc1cc(=O)n2[nH]c(N)c(N=Nc3ccccc3F)c2n1,-7.1,-33.1%[inhibitor],8.3%,0.4%,?,0.8,-1.6%
